NS1 inh = influenza NS1 inhibition; 0.4% of 270,000 active; AID 2326; Potency, µM (doses to about 46.1 µM), for the others: top-dose activity, positive = more growth; S. cerevisiae slowed by influenza A NS1, growth recovery by OD600; active means well fitted rising curve with a large enough effect; inconclusive means small, poorly fitted or top-dose-only effect; inactive means no such curve, though single readings can be large or run the other way; also: nearly all actives have a fitted effect of over 50% in size
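Recovery from NS1-induced slow growth read by OD600 in budding yeast switched to galactose assay medium (pH 6.0, -URA) at 1:100 dilution. Compound 23 nl per well; the matching strain lacking NS1 serves as control.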
RE007 growth inh = less growth of the S. pombe RE007 Vpr strain; S. pombe RE007 Vpr strain, BacTiter-Glo ATP luminescence, 24 h; control for the full effect not named in the record; Potency, µM (doses to about 92.2 µM), for the others: top-dose activity change, negative = less growth; 0.21% of 360,000 active; active = well fitted falling curve with a large enough effect; inconclusive = small, poorly fitted or top-dose-only effect; inactive = no such curve, though single readings can be large or run the other way;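 also: % is scaled to controls: 0 for no effect and ±100 for the full control effect; nearly all actives have a fitted effect of over 50% in size; the assay follows cell death caused by Vpr and the record does not say whether a fall means rescue or toxicity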
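Fission yeast RE007 carrying one integrated HIV-1 vpr copy, seeded at OD 0.01 in PMG+AL medium with 23 nL pinned compound. Grown 24 h at 30 degrees; viability read by BacTiter-Glo luminescence after 5 min.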
Cruzain inh Det = blocks cruzain activity in presence of Triton detergent; P25779; purified cruzain, Z-FR-AMC fluorescence, 0.01% Triton; Potency, µM, without a hit: max response, negative = inhibition, actives largely listed as inhibitors; 0.43% of 200,000 active;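 also: plate controls were neutral wells for no effect and buffer without enzyme for full effect; nearly all actives have a fitted effect of over 40% in size; top concentration of the series not given in the record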
Target sequence (P25779 123-467 limits assumed): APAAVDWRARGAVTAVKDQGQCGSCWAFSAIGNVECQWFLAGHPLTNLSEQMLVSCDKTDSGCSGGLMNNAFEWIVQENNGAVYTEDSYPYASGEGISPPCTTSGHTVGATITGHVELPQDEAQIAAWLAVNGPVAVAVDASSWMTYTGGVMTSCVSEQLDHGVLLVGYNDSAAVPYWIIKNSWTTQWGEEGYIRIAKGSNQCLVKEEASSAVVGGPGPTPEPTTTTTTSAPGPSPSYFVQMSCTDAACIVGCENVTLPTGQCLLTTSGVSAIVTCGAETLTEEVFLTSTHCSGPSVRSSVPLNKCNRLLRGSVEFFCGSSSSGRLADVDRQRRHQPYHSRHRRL
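Detergent-containing run (0.01% Triton X-100) in acetate buffer pH 5.5 with 5 mM DTT: enzyme at 1.5 nM final, 15 min compound preincubation at room temperature, then 2 uM Z-FR-AMC substrate. Activity taken as 60 s fluorescence increase at 360/450 nm.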
Cruzain inh noDet = cruzain (T. cruzi) inhibition without detergent; P25779; purified cruzain, Z-FR-AMC fluorescence, no detergent; Potency, µM, for the others: max response, negative = inhibition, usual class: inhibitors; 2.3% of 200,000 active; AID 1476;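 also: plate controls were enzyme without inhibitor for no effect and buffer without enzyme for full effect; nearly all actives have a fitted effect of over 40% in size; top concentration of the series not given in the record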
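Detergent-free condition (0.00005% Triton X-100) in acetate buffer pH 5.5 with DTT. 1.5 nM enzyme and compound were pre-mixed 15 min, then 2 uM Z-FR-AMC substrate added; reaction progress from fluorescence change between first and third reads (60 s).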
2A StopGo = FMDV 2A StopGo reporter, luciferase signal; human cells with a luciferase reporter of 2A StopGo recoding; control for the full effect not named in the record; Potency, µM (highest dose often 57.9 µM), without a hit: at the highest dose signal change, negative = less light; 1.2% of 410,000 active; AID 1159524; active = well fitted falling curve with a large enough effect; inconclusive = small, poorly fitted or top-dose-only effect; inactive = no such curve, though single readings can be large or run the other way; tested in HEK293T cells; also: % is scaled to controls: 0 for no effect and ±100 for the full control effect; nearly all actives have a fitted effect of over 45% in size; luciferase light after 4 h
SARS PLpro yeast = blocks SARS-CoV papain-like protease in a yeast assay; S. cerevisiae expressing SARS-CoV PLpro, growth rescue; control for the full effect not named in the record; Potency, µM (doses to about 32.9 µM), inactives show top-dose activity, positive = growth rescue; 0.19% of 330,000 active; AID 485353; active means well fitted rising curve with a large enough effect; inconclusive means small, poorly fitted or top-dose-only effect; inactive means no such curve, though single readings can be large or run the other way; also: 0% is about no effect; nearly all actives have a fitted effect of over 55% in size; growth read by luminescence after 48 h
MARV entry inh = inhibitors of Marburg virus binding or cell entry. Marburg virus pseudotyped entry inhibition, cell reporter; control for the full effect not named in the record; about a third of the inactives were read at about 46 µM. Potency, µM (series often up to 37.8 µM), inactives show top-dose activity change, negative = inhibition, actives largely listed as inhibitors. 1.8% of 300,000 active; active = well fitted inhibition curve with a large enough effect; inconclusive = small, poorly fitted or top-dose-only effect, or effect the other way; inactive = flat fitted curve, though single readings scatter; tested in HEK293 cells; about a fifth of its hits are not listed in these tables; also: % is scaled to controls: 0 for no effect and ±100 for the full control effect; luciferase read-out
LASV entry inh = Lassa virus entry inhibition; Lassa virus pseudotype entry inhibition, cell reporter; control for the full effect not named in the record; Potency, µM (series often up to 37.9 µM), for the others: top-dose activity change, negative = inhibition, usual class: inhibitors; 1.2% of 300,000 active; AID 540256; active means well fitted inhibition curve with a large enough effect; inconclusive means small, poorly fitted or top-dose-only effect, or effect the other way; inactive means flat fitted curve, though single readings scatter; tested in HEK293 cells; also: % is scaled to controls: 0 for no effect and ±100 for the full control effect; nearly all actives have a fitted effect of over 50% in size; luciferase read-out
Numbers without * were called inactive; ? = inconclusive; . = not tested or not shown; [ ] = dose if it differs, or a comment. Unless noted, calls follow the shape of the dose curve; as a rule, active = well fitted curve in the direction sought with a large enough effect; inconclusive = small, poorly fitted or top-dose-only effect, or another doubt; inactive = no such curve, though single readings can be large; an effect the other way counts as inactive or inconclusive. Potency is read from the fitted curve at half-maximal effect.

Molecule,LASV entry inh,MARV entry inh,Cruzain inh noDet,NS1 inh,Cruzain inh Det,RE007 growth inh,2A StopGo,SARS PLpro yeast
CCOC(=O)C(CCC#N)(CCC#N)C(=O)OCC,7%,-8%,-3%,-11%,-0.1%,24%,34%[activator],0%
Cc1ccc(S(=O)(=O)NC(=O)N2CCC(C)CC2)cc1,.,-1%,-6%,5%,-0.4%,.,.,4%
COC(=O)c1cc2sc(Cl)cc2n1CC(=O)Nc1cc(OC)cc(OC)c1,.,1%[46.1 µM],18%,.,-1.7%,.,-7%,.
COC(=O)c1c(NC(=O)CSc2nnc3ccccn23)sc2c1CCC2,-4%,-6%,2%,-7%,-4.9%,-2%,-2%,-10%
CC(C)c1ccc(Nc2nc(Cl)nc(NCc3ccco3)n2)cc1,.,.,.,-3%,.,14%,-4%,-1%
CC(C)OCCCNc1nc(Cl)nc2c1cnn2C,-1%,19%,.,.,.,2%,-26%,.
Nc1ncnc(Oc2ccccc2F)c1[N+](=O)[O-],-18%[46.1 µM],?,.,1%,.,-10%,-5%,0%
CCc1nc2ccc(C(=O)NCc3ccc(N(C)C)cc3)cc2nc1CC,-11%[46.1 µM],.,-3%,.,-0.8%,.,26%,.
N#Cc1c(-c2ccc(F)cc2)c2c([nH]c1=O)-c1ccccc1OC2,?,12%[46.1 µM],.,0%,.,6%,-8%,0%
Cc1ccc(CNC(=O)Cn2c(=O)n(Cc3ccccc3)c(=O)c3sc4ccccc4c32)cc1,-10%[46.1 µM],-5%[46.1 µM],5%,.,-1.3%,.,-24%,.
COc1ccccc1C1CCN(Cc2ccccc2Cl)CC1,-29%,?,.,-1%,.,-13%,?,0%
O=C(CC1SC(=O)NC1=O)Nc1ccc(Cl)cc1 (configuration not stated),9%,15%[46.1 µM],.,?,.,-1%,-11%,0%
O=C(NCC1CCN(Cc2ccccc2Cl)CC1)c1cc2ccc3cccnc3c2[nH]1,-23%[46.1 µM],.,-9%,.,-4.0%,.,-8%,.
CSCCC(NC(=O)c1ccc(Cl)cc1)C(=O)OCC(C)=O (configuration not stated),2%,-4%[46.1 µM],.,.,.,-7%,5%,7%
O=C(Nc1nnc(C(F)(F)F)s1)c1ccc(Br)s1,?,?,.,.,.,-7%,-5%,-4%
COc1ccccc1CCNC(=O)CCC(=O)N1CC2C[C@@H](C1)Cn1c2cccc1=O,.,.,.,5%,.,3%,-3%,-1%
CC(C)C(Sc1nc(-c2ccccc2)cc(-c2ccccc2)c1C#N)C(=O)O (configuration not stated),-4%,?,.,?,.,17%,22%,-1%
COc1ccccc1NC(=O)COC(=O)c1cnc(C)cn1,2%,4%[46.1 µM],.,0%,.,-18%,1%,1%
O=C(CNC(=O)c1ccc(F)cc1)Nc1ccccc1C(F)(F)F,.,.,.,-12%,.,3%,23%,0%
N/C(CS(=O)(=O)c1ccc(F)cc1)=N\O,-6%[46.1 µM],2%[46.1 µM],.,1%,.,-3%,-4%,-1%
COc1cccc(/C=C2\SC(=S)N(C(Cc3ccccc3)C(=O)O)C2=O)c1 (configuration not stated),-4%[46.1 µM],11%[46.1 µM],.,-3%,.,7%,-16%,1%
Cc1noc(C)c1S(=O)(=O)N1CCCC(C(=O)NCCc2ccccc2)C1 (configuration not stated),?,-1%,-6%,3%,2.6%,11%,-3%,-2%
Cc1cc(C)c(NC(=O)COC(=O)c2cc([N+](=O)[O-])ccc2N2CCOCC2)c(C)c1,-2%,-21%,.,8%,.,3%,-24%,-4%
C=CCOc1c(CCC)cc(CCC)cc1C(N)=O,-16%,?,.,6%,.,-2%,-15%,-1%
Cc1cccc(-c2noc(CCCC(=O)NC3CCCCC3)n2)c1,.,?,.,0%,.,-3%,-25%,2%
COc1ccc(NC(=O)CSc2nnc(-c3cccs3)n2N)cc1S(N)(=O)=O,?,3%[46.1 µM],.,.,.,-13%,-4%,-1%
Cc1ccc(N2N=C(c3ccc(F)cc3)CC2c2ccco2)cc1 (configuration not stated),.,.,.,-5%,.,-23%,24%,-2%
CC1CN(c2nc(Nc3ccccc3F)nc(N)c2[N+](=O)[O-])CC(C)O1 (configuration not stated),-18%[46.1 µM],?,.,-1%,.,-8%,-28%,3%
COc1ccc(OC)c(C2NC(=O)NC(C)=C2C(=O)Nc2ccc(C)cc2)c1 (configuration not stated),-24%,13%,-5%,-13%,3.0%,4%,2%,5%
O=C(Nc1ccc(C(=O)NC2CCCCC2)cc1)c1cccnc1,-9%,-5%[46.1 µM],.,2%,.,-11%,18%,3%
Cc1cccc(CN2CCCC(C(=O)Nc3ccccc3Oc3cccnc3)C2)c1 (configuration not stated),-7%[46.1 µM],-13%[46.1 µM],.,0%,.,3%,-24%,1%
COCc1cc(=O)n2[nH]c(N)nc2n1,.,-4%,.,-8%,.,-1%,-9%,2%
Cc1cc(C(F)F)n2ncc(C(=O)NCc3ccccc3)c2n1,-7%,11%,2%,-12%,1.1%,-2%,25%,2%
Cc1c2cnn(-c3ccccc3)c(=O)c2c(C)n1CC(=O)NCc1ccccc1Br,-2%[46.1 µM],-3%[46.1 µM],9%,.,-4.1%,.,-18%,.
COc1ccccc1NC(=O)c1c(NCc2sccc2C)sc2c1CCCCC2,-2%[46.1 µM],.,-1%,.,-17%,.,25%,.
COC(=O)c1ccc(NC(=O)CN2CCN(CC#N)CC2)cc1,?,?,.,-1%,.,3%,12%,0%
COc1cc(C(=O)n2nc(C)cc2C)cc(OC)c1OC,-5%,26%,5%,-1%,1.6%,0%,-11%,-4%
Cc1nnc(NC(=O)c2cccn(Cc3cccc(F)c3)c2=O)s1,13%[46.1 µM],.,-2%,.,0.0%,.,1%,.
Cn1c(SCC(=O)NC2CC2)nnc1-c1ccco1,10%,-8%[46.1 µM],7%,-5%,0.5%,-2%,-15%,5%
COc1ccc(CNC(=O)c2ccc[nH]2)cc1,15%,12%[46.1 µM],.,7%,.,3%,20%,1%
C=CCN(C(C)=O)C1CC(=O)N(c2ccc(OCCC)cc2)C1=O (configuration not stated),-3%,17%,-1%,7%,4.8%,-20%,-11%,7%[6.58 µM]
O=C(CSc1ccc(Cl)cc1)Nn1cnnc1,-5%,-10%,-10%,1%,3.1%,12%,-13%,5%
Cc1ccc2nc(SCc3ccc([N+](=O)[O-])cc3)[nH]c2c1,6%,-21%,-27%,-25%,-11%,?,-12%,-14%
O=C(NCc1cccs1)c1ccc(N2CCCCC2)nc1,-16%,-2%,-13%,-48%,3.9%,3%,.,.
O=C(NC1CCCC1)c1cnc2n(c1=O)CCS2,?,13%,-22%,22%,4.7%,2%,12%,0%
Cc1ccnc(N2CCC(C(=O)NNC(=O)c3ccccc3C)CC2)n1,14%,-24%,-2%,-13%,4.2%,-4%,.,0%
COc1ccc(N2CC(C(=O)N3CCOCC3)CC2=O)cc1 (configuration not stated),8%[46.1 µM],-3%[46.1 µM],.,2%,.,6%,2%,1%
COc1cccc(CSc2nc3ccccc3[nH]2)c1,-13%,?,1%,-20%,-3.6%,-7%,0%,-22%
CCOC(=O)c1cccc(NC(=O)Cn2c(=O)nc(-c3ccccc3)c3ccccc32)c1,-3%[46.1 µM],.,-10%,.,-0.1%,.,-29%,.
Cc1ccc(N2CCn3c2nc2c3c(=O)n(C/C=C/c3ccccc3)c(=O)n2C)cc1C,-2%[46.1 µM],.,2%,.,-2.1%,.,5%,.

Continued.
Molecule,LASV entry inh,MARV entry inh,Cruzain inh noDet,NS1 inh,Cruzain inh Det,RE007 growth inh,2A StopGo,SARS PLpro yeast
COCCNc1nc2nonc2nc1N1CCC(N(C)C)C1 (configuration not stated),.,.,.,8%,.,-4%,-5%,0%
CCCCOC(=O)CCc1c(C)[nH]c(=S)[nH]c1=O,-5%,0%,-2%,2%,0.6%,14%,-9%,-1%
COc1ccc(-n2nc([N+](=O)[O-])c(=NCCCN3CCCC3=O)n2O)cc1,.,.,.,-7%,.,-2%,-14%,-1%
CCN(CC(=O)Nc1ccc(NC(C)=O)cc1)C(=O)c1ccc(=O)[nH]c1,?,3%[46.1 µM],.,-1%,.,-2%,-15%,2%
CCOc1ccc(C(=O)Nc2cccc(SC)c2)cc1,?,?,-15%,-38%,-5.8%,-12%,22%,-22%
O=C(NCC(=O)N(CCN1CCOCC1)C(C(=O)NC1CCCC1)c1cccs1)c1ccco1 (configuration not stated),14%,-1%[46.1 µM],1%,-1%,6.5%,20%,0%,7%
Cc1ccc(C(=O)N/C(=C\c2cn(C)c3ccccc23)C(=O)OCCN(C)C)cc1,-3%,?,.,2%,.,0%,-2%,-2%
COCCn1cnnc1SCC(=O)Nc1ccc(N2CCCCC2)cc1,1%,1%,.,.,.,4%,-1%,-19%
Cc1ccc2nc(C(=O)O)c(C(=O)O)nc2c1,-18%,12%,8%,14%,0.2%,45%,20%,18%
COc1cc2nc(-c3ccccc3)nc(N3CCCC3)c2cc1OC,.,1%,15%,-5%,-2.8%,.,.,1%
O=C(Nc1ccc(Cl)c(Cl)c1)Nc1cc(C(=O)NC2CC2)ccc1Cl,.,.,6%,4%,-8.1%,.,.,-4%
Cc1cccc(C(=O)NNC(=O)C(=O)NC(C)(C)C)c1,3%,-2%[46.1 µM],2%,-10%,7.0%,8%,5%,1%
O=C(O)c1c2c(nc3ccc(F)cc13)CCC2,5%,2%,?,1%,1.0%,-10%,2%,2%
COc1ccc(OC)c(S(=O)(=O)N2CCC(n3c(C)nc4cccnc43)CC2)c1,0%[46.1 µM],.,19%,.,-0.8%,.,0%,.
COCCn1c(SCC(=O)N2CCN(c3ccccc3)CC2)nc2c(c1=O)SC(C)C2 (configuration not stated),.,.,.,-2%,.,-6%,-14%,-1%
